Compound activity from PubChem BioAssay.
VDR inh: Inhibitors of the vitamin D receptor (VDR): qHTS; actives 0.93% (n = 400,000); Vitamin D3 receptor (Homo sapiens), P11473; VDR-SRC2-3 peptide fluorescence polarization, 2 h; Potency, µM, inactives show max response, negative = inhibition, most hits filed as inhibitors; active = well fitted inhibition curve with a large enough effect; inconclusive = small, poorly fitted or top-dose-only effect, or another doubt; inactive = no such curve, though single readings can be large or run the other way; note: series mostly up to about 120 µM
Target sequence (P11473 whole entry, looked up): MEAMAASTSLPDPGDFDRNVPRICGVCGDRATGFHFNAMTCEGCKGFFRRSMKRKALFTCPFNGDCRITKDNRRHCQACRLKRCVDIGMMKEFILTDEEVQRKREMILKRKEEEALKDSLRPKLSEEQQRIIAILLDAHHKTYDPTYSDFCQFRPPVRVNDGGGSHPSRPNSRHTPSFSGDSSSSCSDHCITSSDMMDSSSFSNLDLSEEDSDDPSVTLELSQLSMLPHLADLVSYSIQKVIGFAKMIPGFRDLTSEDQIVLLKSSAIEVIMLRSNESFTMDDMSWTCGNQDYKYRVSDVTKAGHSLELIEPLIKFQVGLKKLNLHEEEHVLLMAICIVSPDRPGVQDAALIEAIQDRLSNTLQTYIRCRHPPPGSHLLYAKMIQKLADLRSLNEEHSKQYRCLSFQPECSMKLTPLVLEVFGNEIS
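Reagent solutions, kept cold and dark, are dispensed first; compounds are then pinned in at 23 nl, plates briefly spun, and incubated 2 h at ambient temperature. Inhibition of VDR–SRC2-3 peptide binding is read by fluorescence polarization.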
* hit, by the source's call; ? = inconclusive; & = joins results of further samples. % is set by controls: 0 for no effect and ±100 for the full control effect; potency is the fitted concentration of half-maximal effect.

SMILES	VDR inh
Cc1[nH][nH]c(=O)c1C(c1ccc(N(C)C)c(Br)c1)c1c(C)[nH][nH]c1=O	-20.7%
COCCN(Cc1cc2cc(C)ccc2nc1Cl)C(=O)Nc1ccccc1OC	-5.9%
C[C@H](CCC(=O)NCC(=O)O)[C@H]1CC[C@H]2[C@H]3[C@@H](C[C@@H](O)[C@]12C)[C@]1(C)CC[C@H](O)C[C@@H]1C[C@@H]3O	3.2%
CCCS(=O)(=O)c1c(S(=O)(=O)CCC)c2ccccn2c1C(=O)OC	-10.1%
CC(=NNC(=O)CCC(=O)Nc1ccccc1Cl)c1ccco1	-6.5%
O=C(NCCC1=CCCCC1)C1CCN(S(=O)(=O)c2ccc(Br)s2)CC1	-2.5%
CN1CCN(c2ncc3nc(CCc4ccccc4)c(=O)n(C)c3n2)CC1	-2.8%
Cc1nc2cnc(Oc3ccccc3)nc2n(-c2ccccc2)c1=O	8.1%
c1ccc(-n2nnnc2SCc2ccccn2)cc1	-6.0%
Cc1noc(C)c1S(=O)(=O)N1CCC(C(=O)N2CCN(c3ccccc3)CC2)CC1	8.0%
O=C(CNC(=O)OCc1ccccc1)OC(c1ccccc1)c1ccccc1	-14.8%
CC(C)COC(=O)c1ccc(NC(=O)C2C3C=CC(C3)C2C(=O)O)cc1 (stereo not drawn)	-10.0%
COC(=O)c1c(C(=O)OC)c(-c2ccc(C(C)(C)C)cc2)n2c1CS(=O)C2 (stereo not drawn)	-10.9%
CCc1nc2c(cnn2-c2ccc(Cl)cc2)c(=O)n1-c1ccc(OC)cc1	8.1%
COc1ccc(CCNC(=O)CSc2ccc(-c3ccncc3)nn2)cc1	0.9%
CCN(CC)S(=O)(=O)c1cccc(NC(=O)C2SC(=Nc3ccc(C)cc3C)C(C(=O)NCC3CCCO3)=C2N)c1 (stereo not drawn)	5.4%
Cn1ncc(Cl)c1C(=O)NCC1CCCO1 (stereo not drawn)	-2.1%
CC(C)c1cc(NC(=O)CCl)on1	7.1%
NC(=O)C(c1ccc(Cl)cc1)c1ccc(Sc2ccccc2)nn1 (stereo not drawn)	-6.9%
O=C(NCc1ccccn1)C1CN(S(=O)(=O)c2ccccc2)CCN1S(=O)(=O)c1ccccc1 (stereo not drawn)	0.7%
Cc1ccc(-n2nnc(-c3cc4ccccc4nc3Cl)n2)cc1	-8.4%
CC(=O)/C(C)=N\O	-2.4%
CCCN1CCC(=O)N([C@H](CO)Cc2ccccc2)CC1	4.7%
O=C(COc1ccc2ccccc2c1Br)N1CCN(c2ccccn2)CC1	9.1%
COc1cccc2[nH]c(=O)c(-c3ccccc3)cc12	2.9%

(next part)
SMILES	VDR inh
CCCCc1cc(=O)oc2cc(OCC(=O)NCc3ccccn3)ccc12	-4.0%
O=C(Nc1cccc([N+](=O)[O-])c1)c1ccc(CN2CCOCC2)cc1	-6.5%
COc1ccc(CCNC(=O)CN(c2ccc(OC)c(OC)c2)S(C)(=O)=O)cc1	-14.2%
Cc1ccc(NC(=O)c2ccccc2)cc1-n1cnnn1	13.4%
COc1cc(OC)c(Nc2cc(C)nc3ncnn23)cc1Cl	-5.1%
CCN(C(=O)COC(=O)c1cc2c(s1)CCCC2)c1c(N)n(Cc2ccccc2)c(=O)[nH]c1=O	-11.4%
COc1ccccc1C(C)Nc1nc(-c2cccnc2)nc2ccccc12 (stereo not drawn)	-5.4%
COc1cccc(-c2nc(-c3ccc(-c4ccccc4)nc3OC)no2)c1	18.7%
COc1ccccc1C1CN=NC12CCCc1ccccc1C2=O (stereo not drawn)	2.3%
CCN(Cc1ccccc1)S(=O)(=O)c1c(C(=O)N2CCCC2)c(C)n(C)c1C	-27.6%
COC(=O)Cn1c(CN2CCN(c3ccc(F)cc3)CC2)nc2c1c(=O)n(C)c(=O)n2C	-7.0%
C=C(C)CSc1nc(N)cc(=O)[nH]1	-0.9%
CC(C)/C=N/Nc1nc(-c2ccc(Br)cc2)cs1	1.3%
COc1ccc(C(=O)N2CCC3(CCN(C)CC3)CC2)cc1	8.6%
Cc1cc(OCc2ccccc2)ccc1/C(O)=C1/C(=O)C(=O)N(Cc2cccnc2)C1c1ccncc1 (stereo not drawn)	-6.4%
CCCCn1c(=S)[nH]c2cc(S(=O)(=O)N3CCOCC3)ccc21	13.8%
COCC(C)NCc1cc(Br)ccc1OC (stereo not drawn)	-0.8%
COC(=O)C(C)Oc1cc(OC(C)C(=O)OC)c2c(-c3ccccc3)cc(=O)oc2c1 (stereo not drawn)	8.8%
Cc1ccc(NC(=O)COC(=O)c2ccc(Cl)cc2)cc1S(=O)(=O)N(C)C	-15.1%
O=C(OCc1nc2ccccc2s1)c1ccccc1O	-8.8%
c1ccc2c(c1)OCCOCCOc1ccccc1OCCOCCO2	-0.5%
Cc1ccc(S(=O)(=O)NCC(=O)Nc2cccc([N+](=O)[O-])c2)cc1	2.3%
CSCCC(NS(=O)(=O)/C=C/c1ccccc1)C(=O)O (stereo not drawn)	7.9%
CN1CCC/C1=C1/C(=O)N(c2ccccc2)N=C1NC(=O)Nc1cccc(Cl)c1	?
O=C(CSCc1cccc(Cl)c1)NCc1ccc2c(c1)OCO2	-7.7%

Following part
SMILES	VDR inh
Cc1ccc(S(=O)(=O)N2CC(=NN=C(N)N)C2)cc1	21.9%
CCN(CC)C(=O)C(=O)N/N=C/c1ccc(C(=O)OC)cc1	10.8%
COc1ccc(C2CC(O)(c3ccccc3)Oc3cc(OC)c(OC)c(OC)c32)cc1 (stereo not drawn)	-16.6%&2.4%
c1ccc(CCNc2ncnc3scc(C4COc5ccccc5O4)c23)cc1 (stereo not drawn)	13.4%
CCS(=O)(=O)N1CCc2cc(C(=O)NCc3ccc(OC)cc3)ccc21	6.3%
CCOC(=O)CCn1cnc2onc(-c3cc(OC)ccc3Cl)c2c1=O	-6.6%
c1ccc(CNc2ncnc3nc[nH]c23)nc1	3.8%
Cn1cc(/C=C2\SC(=O)N(c3ccc(O)cc3)C2=O)c2ccccc21	-6.6%
CNc1c(NS(=O)(=O)c2ccc(F)c(Cl)c2)c(=O)oc2ccccc12	10.9%
Cc1cc(C(=O)OCC(=O)Nc2cccc(S(N)(=O)=O)c2)c(C)o1	-2.6%
Cc1cc(NS(=O)(=O)c2ccc(NC(=O)CSc3nc4ncccc4[nH]3)cc2)nc(C)n1	-2.9%
Cn1c(=O)c2ccccc2n2c(CCl)nnc12	-3.1%
Cc1cc(SCC(=O)N(CC(C)C)c2c(N)n(CC(C)C)c(=O)[nH]c2=O)nc2ccccc12	?
CCC(=O)Nc1ccc(C(=O)OCc2ccccc2)cc1	15.2%
COc1cccc(C(=O)/C=C/c2ccc(N3CCCCC3)c([N+](=O)[O-])c2)c1	?
CC(CCC(=O)O)C1CC[C@@]2(C)C3C(=O)CC4C(C)(C)C(O)CC[C@]4(C)C3C(=O)C[C@]12C (stereo partly drawn)	-8.9%
Cc1cccc(NC(=O)c2cnc3scc(C)n3c2=O)c1	8.0%
O=C(Nc1ccccc1C(=O)NC1CCCCC1)c1ccccc1	5.7%
COC(=O)CCSc1cc(NCCCOC(C)=O)c([N+](=O)[O-])c2nonc12	-27.0%
Cc1cc(NC(=O)C(C)Sc2nc(-c3cccs3)nc3ccccc23)no1 (stereo not drawn)	-4.9%
O=C(Cn1cnc2ccccc2c1=O)N1CCN(c2ccc(F)cc2)CC1	-1.2%
COc1ccccc1C1CCCN1Cc1nc(-c2ccc(C)s2)oc1C (stereo not drawn)	1.3%
CCOC(=O)c1ccc2c(c1)N(Cc1ccc(F)cc1Cl)C(=O)c1ccccc1S2(=O)=O	8.9%
Cc1ccc2c(Cl)c(C(=O)Nc3nn[nH]n3)sc2c1	-6.8%
Cc1ccc([C@@H]2C[C@H]3CN(Cc4cccc(Cl)c4)C(=O)[C@]34CCCN24)o1	-18.1%

Copied from the list:
O=C(Nc1ccccc1C(=O)NC1CCCCC1)c1ccccc1 – VDR inh = 5.7%
O=C(Cn1cnc2ccccc2c1=O)N1CCN(c2ccc(F)cc2)CC1 – VDR inh = -1.2%
CCC(=O)Nc1ccc(C(=O)OCc2ccccc2)cc1 – VDR inh = 15.2%
c1ccc(CCNc2ncnc3scc(C4COc5ccccc5O4)c23)cc1 (stereo not drawn) – VDR inh = 13.4%
Cn1cc(/C=C2\SC(=O)N(c3ccc(O)cc3)C2=O)c2ccccc21 – VDR inh = -6.6%

Compounds above with a furan ring, fused or not (three):
SMILES	VDR inh
CC(=NNC(=O)CCC(=O)Nc1ccccc1Cl)c1ccco1	-6.5%
Cc1cc(C(=O)OCC(=O)Nc2cccc(S(N)(=O)=O)c2)c(C)o1	-2.6%
Cc1ccc([C@@H]2C[C@H]3CN(Cc4cccc(Cl)c4)C(=O)[C@]34CCCN24)o1	-18.1%

Further entries.
SMILES	VDR inh
Cc1ccc(N2CC(C(=O)N3CCOCC3)CC2=O)cc1C (stereo not drawn)	1.9%
CC(C)C1=CC2=CC[C@@H]3[C@](C)(CO)CCC[C@]3(C)C2CC1 (stereo partly drawn)	-28.1%
COc1ccc(CCn2nnc(-c3ccc(NC(C)=O)c(Cl)c3)n2)cc1	-5.9%
O=c1ccc(=O)n(CCc2ccccn2)[nH]1	2.5%
Cn1c(SSc2ccc(-c3cccnc3)n2C)ccc1-c1cccnc1	?
Oc1c(Br)cc(Br)c(/C=N/n2c(-c3ccccc3)n[nH]c2=S)c1Br	?
COc1ccc(NS(=O)(=O)c2cc(-c3onc(C)c3C)ccc2C)c(OC)c1	4.7%
Cn1c(N)c(C(=O)CSc2nnc(NC3CCCCC3)s2)c(=O)n(C)c1=O	-4.7%
COc1ccc(CCNC(=O)Cn2nc(C(=O)O)c3ccccc3c2=O)cc1OC	-0.2%
CC(C)C[C@@H](CC(=O)N[C@@H](CCC(=O)O)CC(=O)O)NC(=O)[C@@H]1CNCC[C@H]1NC(=O)C[C@H](CCCN)NC(=O)C[C@H](Cc1ccccc1)NC(=O)[C@@H]1CCCC[C@H]1N	9.3%
COc1ccccc1C(=O)NCCn1cc(SCC(=O)NCC2CCCO2)c2ccccc21 (stereo not drawn)	5.3%
Cc1ccc(S(=O)(=O)N2CCN(S(=O)(=O)N3CCCCC3)CC2)c(C)c1	15.1%
O=C(NCc1ccc2c(c1)OCO2)c1ccc2c(c1)C(=O)N(Cc1cccnc1)C2=O	-3.0%
C/C=C/C(=O)Nc1ccccc1Br	-5.9%
O=C1OC(Nc2ccc3c(c2)OCO3)c2ccccc21 (stereo not drawn)	-8.0%
CCN(CC(=O)NCc1cccs1)C(=O)c1ccc(S(=O)(=O)Nc2ccccc2C)cc1	-7.2%
Cc1nc(/C(N)=N/OC(=O)c2cccc(Cl)c2)c(C(F)(F)F)o1	-7.1%
Cc1ccc2[nH]c3c(=O)n(CCCN4CCOCC4)cnc3c2c1	0.8%
CCOc1ccc(N2C=Nc3ccc(OCC)cc3C2)cc1	-23.9%
Cc1ccc(S(=O)(=O)N(Cc2ccccc2)c2ccccc2C(=O)N2CCCCC2)cc1	8.7%
COc1ccc(-c2cn3nc(SCC(=O)Nc4ccccc4F)ccc3n2)cc1	18.3%
Cc1nc(C(=O)Nc2cccc(Cl)c2Cl)nn1-c1cc(OC(C)C)c(Cl)cc1Cl	-22.1%
CC(C)CCOc1ccc(-c2c(=O)n(OCc3ccc([N+](=O)[O-])cc3)c3ccccc3[n+]2[O-])cc1	2.8%
O=C(CN1C(=O)/C(=C/c2cccc(Br)c2)SC1=S)NC1=NCCS1	11.6%
Cc1ccc(C2(C)NC(=O)N(CC(=O)NNC(=O)c3cc(C)oc3C)C2=O)cc1 (stereo not drawn)	-18.1%

The results go on:
SMILES	VDR inh
COCCN1C(=O)C(=O)/C(=C(/O)c2ccc(S(=O)(=O)N3CCCCC3)cc2)C1c1ccc(OC)c(OC)c1 (stereo not drawn)	4.4%
COc1ccc(CCNC(=O)c2ccccc2NC(=O)c2ccco2)cc1OC	-3.0%
COc1ccc(C(C)(C)C)cc1NC(=O)Cn1cnnn1	1.1%
Clc1cccc(-n2ncc3c(NCCCn4ccnc4)ncnc32)c1	3.6%
CN(C)CCn1nnnc1SCC1=C(C(=O)O)N2C(=O)[C@@H](NC(=O)Cc3csc(N)n3)[C@H]2SC1	-3.3%
O=c1c2c3c(sc2n(CCN2CCCC2)c(=O)n1Cc1ccccc1)CCCCC3	-9.7%
CCOC(=O)CSc1nc2c(c(=O)n1-c1ccc(OCC)cc1)SCC2	-2.4%
O=C(CN1CCC(n2nnc3ccccc32)CC1)Nc1ccc2c(c1)CCC2	-14.1%
CCc1ccc2c(c1)cc(CN(C(=S)Nc1ccccc1C)C1CC1)c1nnnn12	12.2%
Cc1sc2ccccc2c1CNC[C@H]1O[C@@H](n2cnc(C(N)=O)n2)[C@H](O)[C@@H]1O	-11.7%
Cc1ccc(OCCNS(=O)(=O)c2ccc(Cl)cc2)cc1	13.7%
Cc1cc(NC(=O)Nc2ccccc2[N+](=O)[O-])no1	?
O=C(O)C(c1ccccc1)N1C(=O)/C(=C\c2ccc(-c3cccc(Cl)c3)o2)SC1=S (stereo not drawn)	79.4µM*
CCOc1ccccc1CNC(=O)c1cc(-c2ccc(OC)cc2)nc2ccc(C(C)C)cc12	9.7%
COc1c(C)cc(C(=O)C2CCCN(Cc3c(C)n(C)n(-c4ccccc4)c3=O)C2)cc1C (stereo not drawn)	10.2%
CC1CC1C(=O)Nc1nc2ccc(Cl)cc2s1 (stereo not drawn)	3.9%

Sorted by number of heavy atoms (highest first): some entries from above.
SMILES	VDR inh
CCc1ccc2c(c1)cc(CN(C(=S)Nc1ccccc1C)C1CC1)c1nnnn12	12.2%
COc1ccc(CCNC(=O)CN(c2ccc(OC)c(OC)c2)S(C)(=O)=O)cc1	-14.2%
CCc1nc2c(cnn2-c2ccc(Cl)cc2)c(=O)n1-c1ccc(OC)cc1	8.1%
O=C(OCc1nc2ccccc2s1)c1ccccc1O	-8.8%

These rows are one share of the data. The share of hits here may be higher or lower than overall.
